LANA-H2A inh – blocks KSHV LANA binding to histone H2A/H2B | Q9QR71 | cell-free LANA-H2A/H2B peptide, fluorescence polarization | inhibition, % (test concentration not listed) | 320,000 tested, 0.6% active | AID 2629; in the data active = inhibition mostly above about 10%, no sharp cut-off; inactive = mostly below about 6.7%;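 also: stock transfer was 7.5 nL into about 10 µL; 0% = median of vehicle wells and 100% = median of positive control wells; one replicate is shown; the record names a cut of 25% in any replicate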
ALR inh – blocks human ALR sulfhydryl oxidase activity | P55789 | purified ALR, DTT oxidation, H2O2 HRP-luminol luminescence | inhibition, % (concentration not given with the values) | 290,000 tested, 3.8% active | AID 485317;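 active = mean and each replicate at 75% or more; inconclusive = only one of the two met; inactive = neither met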;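 also: stock transfer was 7.5 nL into about 7.5 µL; 0% = neutral wells and 100% = wells with inactivated enzyme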
Target sequence (P55789 whole entry, looked up): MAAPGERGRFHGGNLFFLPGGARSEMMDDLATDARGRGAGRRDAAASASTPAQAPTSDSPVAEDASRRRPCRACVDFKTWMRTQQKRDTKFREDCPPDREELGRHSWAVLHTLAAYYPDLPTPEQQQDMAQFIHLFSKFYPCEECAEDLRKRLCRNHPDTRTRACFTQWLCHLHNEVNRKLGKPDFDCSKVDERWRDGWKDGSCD
T cruzi repl – blocks replication of Trypanosoma cruzi; T. cruzi beta-gal in NIH3T3, luminescence, 90 h; inhibition, % (concentration not given with the values); 300,000 tested, 1.4% active;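 active = mean inhibition across valid replicates above about 55%, limit read from the data; inconclusive = mean below that limit but half or more replicates reach it; inactive = mean below it, under half of replicates reach it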;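 also: signal also drops with host cell toxicity which is not excluded here; 0% = plate median of DMSO wells and 100% = zero luminescence signal; higher percent means less beta-gal luminescence so fewer parasites; stock transfer was 50 nL into about 50 µL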
Bfl-1 A1 inh – inhibitors of the anti-apoptotic protein A1, read as caspase activation; MEF A1-2A-BIM cells, Caspase-Glo 3/7 luminescence, 3 h; percent of clofoctol response, vehicle zero; caspase activation, % (no concentration beside the values); 330,000 tested, 0.066% active; AID 2462;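 active = over half of replicate activation scores above 10%, or exactly half above 10 with the replicate mean above 10; inconclusive = replicate mean below 10 yet half the replicates above 10; inactive = over half of replicates below 10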;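 also: wells of about 30 µL received 50 nL stock; many hits fall short of the cut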
Beta cell apopt – beta cell apoptosis inhibition; INS-1E cytokine-induced death, ATP luminescence, 48 h; percent of positive-control rescue, neutral wells zero; protection from apoptosis, % (concentration not given with the values); 300,000 tested, 0.8% active;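 active = all replicates at 75% or more, or half of them and the mean; inconclusive = half reach 75% but not the mean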;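 also: 0% = cytokine-treated negative control wells and 100% = positive control rescue; higher means more ATP so stronger rescue from cytokine killing; wells of about 40 µL received 100 nL stock; the first replicate is given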
Calb FLC – affects C. albicans growth with fluconazole. C. albicans CaCi-2 (fluconazole-resistant clinical isolate) + fluconazole, Alamar Blue growth, 48 h. growth inhibition, % (concentration not given with the values). 300,000 tested, 0.57% active;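 active = most replicates above 75%; inconclusive = exactly half above 75%; inactive = most below 75%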;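 also: all wells also contain fluconazole at 8 µg/ml as a sub-toxic cotreatment; 0% = median of DMSO wells and 100% = median of geldanamycin control wells; wells of about 8 µL received 7.5 nL stock; the first replicate is given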
Beta2AR agonist – activates human beta-2 adrenergic receptor causing internalization; P07550; Am2.2-beta2AR cells, FAP receptor internalization, flow cytometry; reference of the scale not given here; response, % (no concentration beside the values); 340,000 tested, 0.43% active;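 active = response above a set limit, near 3 SD of response in nonfluorescent compounds, cut at about 42% in these data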;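 also: stock transfer was 100 nL into about 11 µL; a reference agonist was the positive control; negative values mostly stem from fluorescent compounds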
Target sequence (P07550 whole entry, looked up): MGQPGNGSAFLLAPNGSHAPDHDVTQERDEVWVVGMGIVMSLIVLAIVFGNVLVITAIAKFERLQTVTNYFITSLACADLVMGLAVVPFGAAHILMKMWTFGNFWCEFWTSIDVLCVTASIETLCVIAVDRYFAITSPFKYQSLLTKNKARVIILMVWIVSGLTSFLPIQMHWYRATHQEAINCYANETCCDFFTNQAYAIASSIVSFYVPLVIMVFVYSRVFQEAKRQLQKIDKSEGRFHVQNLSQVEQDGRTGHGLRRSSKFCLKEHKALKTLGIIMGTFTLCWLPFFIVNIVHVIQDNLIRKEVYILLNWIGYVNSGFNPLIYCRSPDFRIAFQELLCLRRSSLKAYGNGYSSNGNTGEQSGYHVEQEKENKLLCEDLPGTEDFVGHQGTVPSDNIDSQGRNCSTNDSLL
Ecoli rRNA inh – inhibitors of bacterial rRNA selective over humanized ribosomes. GFP signal change (wild-type ribosome), % (no concentration beside the values). 350,000 tested, 1.6% active. E. coli WT GFP vs humanized-ribosome RFP mutants, fluorescence, 24 h; stronger effect = lower value; DMSO median 0, no signal -100. AID 720706;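 active = significant combined selectivity score with lowered wild-type GFP, culture density cut under 30%, mutant RFP and density less affected; inactive = any of these conditions unmet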; also: one replicate is shown; some compounds called inactive have numbers as strong as hits
Ecoli rRNA inh OD600 – second read-out of Ecoli rRNA inh, no call of its own (marks repeat the call); OD600 change, %; measured here: OD600 growth;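 optical density of the mix in the first replicate; 0 = DMSO median and -100 = no signal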
Ecoli rRNA inh RFP – further read-out of Ecoli rRNA inh, marked with its call; RFP signal change, %; measured here: RFP humanized mutant strains;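 first replicate; 0 = DMSO median and -100 = no signal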
* hit, by the source's call; u = inconclusive; x = not tested or not shown. Only part of the results is shown (hit frequency here may not be typical).

Below each SMILES – Bfl-1 A1 inh	LANA-H2A inh	ALR inh	T cruzi repl	Ecoli rRNA inh	Ecoli rRNA inh OD600	Beta2AR agonist	Calb FLC	Ecoli rRNA inh RFP	Beta cell apopt
- CCOC(=O)C1CCCN(Cc2ccc(OCC)cc2)C1 (centres undefined)
    0.0	0.8	8	50	x	x	-2	-8	x	2
- CCn1c(N)nc2ccccc21
    -1.2	-1.4	20	u	x	x	-2	11	x	-8
- CN1CCN(CCNC(=O)Nc2ccc(Cl)cc2)CC1
    4.3	7.8	15	-7	6	7	-10	-4	2.9	-4
- COc1ccc(OC)c(Nc2nc(N)nc(-c3cc4ccccc4o3)n2)c1
    0.8	5.1	-7	2	x	x	4	0	x	1
- CCOC(=O)c1cc(C#N)c(N2CCCC2)nc1-c1ccccc1
    -0.9	1.1	3	25	x	x	-10	6	x	12
- N#C/C(=N/Nc1ccc(S(=O)(=O)N2CCOCC2)cc1)C(N)=O
    0.2	1.3	51	5	5	8	4	-1	-2.0	-5
- O=c1cc(-c2ccc(Cl)cc2)nc(N2CCN(c3ccccc3)CC2)[nH]1
    0.6	3.1	5	-7	19	8	4	3	3.3	-5
- CC(=O)Nc1ccc(NC(=O)C(C)OC(=O)c2ccc(N(C)C)cc2)cc1 (centres undefined)
    0.7	-4.8	-3	-10	-3	5	9	-2	0.9	3
- COc1cccc(OCc2cc(C3Nc4ccccc4C(=O)N3Cc3ccco3)ccc2OC)c1 (centres undefined)
    x	-28	x	23	x	x	14	5	x	x
- Cc1nn(CSc2c(F)c(F)c(F)c(F)c2F)c(C)c1[N+](=O)[O-]
    -0.1	x	-3	x	-14	-23	10	x	-3.5	4
- CC1C=CCC2C(=O)N(c3ccc(OC(=O)c4cccs4)cc3)C(=O)C12 (centres undefined)
    0.0	4.9	-7	-8	11	0	11	0	-0.3	-4
- O=C(c1cccs1)N1CCCC(c2nc3c(nnn3Cc3ccc(F)cc3)c(=O)[nH]2)C1 (centres undefined)
    1.1	-0.7	-26	-1	-7	-11	-3	4	-1.1	0
- Cc1cc(Br)ccc1NC(=O)CN1C(=S)NC(C)(C)CC1C (centres undefined)
    0.5	1.9	16	-8	12	2	-7	2	1.7	2
- Cn1c(N)c(C(=O)CSc2nc(C3CC3)n(-c3ccccc3)n2)c(=O)n(C)c1=O
    1.3	4.3	-5	x	x	x	-10	x	x	3
- CC(Sc1ccc(S(=O)(=O)N2CCOCC2)cn1)c1ccccc1Cl (centres undefined)
    -1.1	0.9	-8	x	0	-36	3	x	-4.5	-6
- Cc1sc(NC(=O)c2ccco2)c(C(c2cccnc2)N2CCCC2)c1C (centres undefined)
    0.1	-2.5	22	50	x	x	3	-22	x	-6
- CC(=O)N1N=C(c2ccco2)CC1c1cc2ccc(C)cc2nc1Cl (centres undefined)
    0.2	-6.3	x	-12	x	x	-9	-1	x	-2
- O=C(c1ccccc1F)N1CCN(S(=O)(=O)c2ccc(S(=O)(=O)N3CCCCCC3)cc2)CC1
    -0.1	1.1	-10	-1	-3	2	1	1	3.9	8
- NC(=O)c1ccccc1NC(=O)CCc1ccccc1
    0.8	-6.7	-1	1	5	1	-3	-14	-5.7	-4
- O=[N+]([O-])c1cccc(NNS(=O)(=O)c2ccccc2F)c1
    -0.2	1.3	x	-9	11	18	8	-5	-5.0	4
- C=CCSC(CC)(CC)C(N)=O
    -0.4	-0.2	-6	-5	8	8	-4	0	3.5	-6
- CCC1C/C(=C\c2cc(OC)c(OC)cc2OC)C(=O)/C(=C/c2cc(OC)c(OC)cc2OC)C1 (centres undefined)
    1.0	-6.2	-16	53	x	x	-31	0	x	1
- Cc1ccc(N(CC(N)=O)C2SC(=O)N(C)C2=O)cc1 (centres undefined)
    -0.2	2.9	x	-17	x	x	-3	48	x	-1
- COCCOc1nc2c(c(=O)n(C)c(=O)n2C)n1Cc1cccc(OC)c1
    0.0	-2.7	x	-19	x	x	-9	1	x	x
- CC(=O)c1cnc(Nc2cccc(C)c2)s1
    0.6	3.0	-5	9	8	11	0	24	0.0	-13
- COCCCN(C(=O)Cc1csc(-c2cccc(Cl)c2)n1)c1c(N)n(Cc2ccccc2)c(=O)[nH]c1=O
    0.7	-0.7	2	-4	15	7	-6	7	2.7	2
- COc1ccc(S(=O)(=O)n2cccc2)cc1
    0.2	3.2	-3	15	-23*	-5.8*	16	-11	2.5*	-4
- CC(=O)c1ccc(OCCCC(=O)N(CCC2=CCCCC2)c2c(N)n(Cc3ccccc3)c(=O)[nH]c2=O)cc1
    0.1	1.8	-4	6	10	22	-6	17	1.9	12
- COc1ccc(-c2cc(C(=O)N3CCCc4ccccc43)no2)cc1
    -0.1	-7.0	-12	8	x	x	-9	4	x	2
- Cc1cc(C(=O)COC(=O)COc2ccccc2C#N)c(C)n1CC1CCCO1 (centres undefined)
    0.4	-1.1	1	x	12	14	-4	x	-1.0	-3
- CCN(CC)c1cc(NCCO)c([N+](=O)[O-])c2nonc12
    -0.1	0.1	-24	2	x	x	2	u	x	2
- Cc1ccc(C(C)C)cc1OCC(=O)NCCCn1ccnc1
    -0.8	-0.9	-8	x	-2	-4	-19	x	0.2	-2
- CCOc1cc(S(=O)(=O)NCc2ccncc2)c(C)cc1C
    -0.1	-3.2	x	-17	7	11	6	-11	-0.1	25
- O=C(O)c1ccccc1NN=C1CCCCC1
    -0.7	x	x	-24	x	x	2	-3	x	-2
- CN(CC(=O)N1CCCCCC1)S(=O)(=O)c1ccccc1
    -0.3	2.1	-10	4	21	12	2	-12	0.9	-4
- CCN1CC=C2C(C#N)=C(N)C(C#N)(C#N)C(CCc3ccccc3)C2C1 (centres undefined)
    0.1	25*	-6	x	x	x	-3	x	x	3
- COc1ccc(C(=O)N2CCc3ccccc32)cc1
    -0.5	-2.6	x	2	x	x	-8	-5	x	2
- CCOC(=O)C1=C(C)NC(C)=C(C(=O)OCC)C1C(=O)OCC(=O)N(C)C
    0.3	-2.0	x	-3	14	6	-3	-1	-7.5	-2
- CCN1CCN(C(=O)NC2CC(=O)N(c3ccc(OC)cc3)C2)CC1 (centres undefined)
    -1.0	-4.2	-31	-5	10	12	-3	0	-1.8	-7
- COc1ccccc1NC(=S)Nc1cccc(F)c1
    -0.2	-3.3	3	-5	x	x	7	-1	x	-6
- CCOc1ccc(OCC(O)CN2CCN(S(=O)(=O)c3cccc(C(F)(F)F)c3)CC2)cc1 (centres undefined)
    -0.1	0.1	-4	1	3	16	0	3	-2.8	6
- CCN(CC)S(=O)(=O)c1ccc(N2CCOCC2)c(NC(=O)Cc2cccc3ccccc23)c1
    0.9	-0.9	-10	21	x	x	-1	-5	x	16
- Cc1ccc(C(=O)c2cc(C)sc2NC(=O)CN2CCN(C(=O)c3ccco3)CC2)cc1
    -0.7	-0.4	x	u	x	x	-8	7	x	12
- C/C(CC(=O)Nc1cccc(Cl)c1)=N\NC(=O)Cc1ccc(Cl)cc1
    0.2	-1.4	x	-12	x	x	2	-12	x	-9
- Cc1cc(=O)oc2ccc(OC(=O)CC(C)C)cc12
    0.2	-0.3	6	-2	-13	0	0	24	-3.6	0
- Cn1cccc1C(C(=O)NC1CCCCC1)N(C(=O)Cc1cccs1)C1CC1 (centres undefined)
    -0.4	1.1	-2	18	12	7	9	-2	2.9	0
- O=C(/C=C/c1ccco1)Nc1ccc(S(=O)(=O)N2CCOCC2)cc1
    0.1	1.9	1	-116	0	12	-14	-4	2.2	-4
- Cc1ccc(OCC(O)Cn2c(N3CCCCC3)nc3c2c(=O)[nH]c(=O)n3C)cc1 (centres undefined)
    -0.5	4.0	2	6	9	22	-13	26	-0.6	-12
- O=C(COc1ccc(NC(=O)c2ccccc2[N+](=O)[O-])cc1)c1ccc(F)cc1
    0.4	0.9	-5	3	7	13	12	29	-3.7	-2
- CC1(C)Cc2c(sc(NC(=O)c3ccc(S(=O)(=O)N4CCCC4)cc3)c2C#N)C(C)(C)N1
    0.4	0.7	36	12	0	12	-19	-5	4.3	x

Following part:
Below each SMILES – Bfl-1 A1 inh	LANA-H2A inh	ALR inh	T cruzi repl	Ecoli rRNA inh	Ecoli rRNA inh OD600	Beta2AR agonist	Calb FLC	Ecoli rRNA inh RFP	Beta cell apopt
- CCCCN(C)C(=O)C1CCN(C/C(C)=C/c2ccccc2)CC1
    0.6	-7.9	-4	x	x	x	-5	x	x	x
- C=CCn1c(CCc2ccccc2)nnc1SCC(=O)OC
    0.6	-3.1	-1	-13	2	2	19	2	2.1	-11
- Cc1ccc(NC(=S)NCCN(C2CCCCC2)C2CCCC2)cc1
    0.2	-4.1	3	27	2	-20	13	1	12	-3
- COc1ccc(-n2c3c(cc(C(=O)NCC(=O)c4ccccc4)c2=O)C(=O)CC(C)(C)C3)cc1
    0.1	0.8	x	20	6	16	-6	u	5.8	-6
- Cc1c(Cl)c(C(=O)N2CCCC2)nn1C
    -0.1	2.7	-6	-9	7	15	-2	-4	3.6	-5
- CCOc1ccccc1NC(=O)C1=C(C)NC(=S)NC1c1cccs1 (centres undefined)
    1.1	-8.4	-9	-2	x	x	-8	-4	x	-2
- COc1cc(OC)cc(-c2oc3cccnc3c2C#CCCO)c1
    0.2	-0.7	4	14	3	5	24	-10	7.3	4
- CC(CCc1ccccc1)NC(=O)CSc1nnnn1C (centres undefined)
    -0.3	-0.2	2	-2	2	5	-1	-2	-7.7	x
- O=C(c1cccc(Cl)c1)N1CCC(=O)N(C(COCc2ccccc2)Cc2ccccc2)CC1 (centres undefined)
    0.4	-13	-9	1	-30	-50	-4	8	-7.7	1
- CCN(CC)c1ccc(C2=NNC(=O)CC2C)cc1[N+](=O)[O-] (centres undefined)
    0.4	20*	-9	-2	x	x	-6	-18	x	-1
- CS(=O)c1ccccc1-c1nc(-c2ccc(Cl)cc2)no1 (centres undefined)
    0.4	-2.6	-1	-12	-6	-5	-13	38	2.0	-1
- Cc1ccc(S(=O)(=O)N2CCOCC2)cc1NC(=O)COC(=O)c1ccc(Cl)s1
    0.5	-6.2	-1	x	-5	-3	-4	x	1.1	7
- CCCc1cc(CNC(=O)C2CCC(=O)N(Cc3ccccc3OC)C2)on1 (centres undefined)
    0.9	2.0	-4	-6	3	10	1	-13	0.8	-1
- Clc1ccc(Cl)c(OCCCCN2CCNCC2)c1
    0.7	-0.3	-21	60*	13	-3	-7	-18	5.1	3
- Cc1cc(NC(=O)CSc2nc3c(sc4ccccc43)c(=O)n2CCCN2CCOCC2)n[nH]1
    -0.6	-3.5	-3	-50	4	20	-3	-13	-2.0	68
- CN1CCN(S(=O)(=O)c2ccc3ccccc3c2)CC1
    0.0	2.9	-10	-13	-6	-10	0	3	0.8	-3
- CC(=O)n1cc(-c2ccncc2)c2ccccc21
    -1.0	0.1	x	-9	-6	-4	-54	8	-2.5	-10
- COc1cccc(OCc2cc(C(=O)N3CCC(c4ccncc4)CC3)no2)c1
    -1.2	-2.5	-3	-14	-7	-14	-5	19	0.8	40
- CC(=O)C1=C(O)C(=O)N(c2nnn(C)n2)C1c1cccs1 (centres undefined)
    -0.1	-0.1	x	-15	12	20	7	0	2.3	-5

Screening results from PubChem.
